Mtb H37Rv – M. tuberculosis H37Rv growth inhibitors, H37Rv strain (AID 1626). M. tuberculosis H37Rv growth inhibition; higher % means a stronger effect. inhibition, % at 10 µM; hits with a dose series show IC50 in µM. 220,000 compounds, 0.95% hits;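 active = confirmed in a dose series; inconclusive = inhibition above 80% but not taken into the dose series; inactive = below 80% or under 30% at every dose of the series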;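 note: bacteria incubated seven days before Alamar blue readout; 0% = bacteria only wells and 100% = bacteria with antibiotic wells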
RecA splice inh – Mtb RecA intein splicing inhibition | P9WHJ3 | cell-free RecA intein splicing, fluorescence | inhibition, %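 (about 9 µM by stock and volumes)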 | 290,000 compounds, 0.75% hits | AID 2221; in the data active = inhibition above about 30%; inconclusive = no clear call, values can overlap the other calls;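 note: 0% = vehicle wells and 100% = reference inhibitor control wells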
Target sequence (P9WHJ3 whole entry, looked up, canonical isoform): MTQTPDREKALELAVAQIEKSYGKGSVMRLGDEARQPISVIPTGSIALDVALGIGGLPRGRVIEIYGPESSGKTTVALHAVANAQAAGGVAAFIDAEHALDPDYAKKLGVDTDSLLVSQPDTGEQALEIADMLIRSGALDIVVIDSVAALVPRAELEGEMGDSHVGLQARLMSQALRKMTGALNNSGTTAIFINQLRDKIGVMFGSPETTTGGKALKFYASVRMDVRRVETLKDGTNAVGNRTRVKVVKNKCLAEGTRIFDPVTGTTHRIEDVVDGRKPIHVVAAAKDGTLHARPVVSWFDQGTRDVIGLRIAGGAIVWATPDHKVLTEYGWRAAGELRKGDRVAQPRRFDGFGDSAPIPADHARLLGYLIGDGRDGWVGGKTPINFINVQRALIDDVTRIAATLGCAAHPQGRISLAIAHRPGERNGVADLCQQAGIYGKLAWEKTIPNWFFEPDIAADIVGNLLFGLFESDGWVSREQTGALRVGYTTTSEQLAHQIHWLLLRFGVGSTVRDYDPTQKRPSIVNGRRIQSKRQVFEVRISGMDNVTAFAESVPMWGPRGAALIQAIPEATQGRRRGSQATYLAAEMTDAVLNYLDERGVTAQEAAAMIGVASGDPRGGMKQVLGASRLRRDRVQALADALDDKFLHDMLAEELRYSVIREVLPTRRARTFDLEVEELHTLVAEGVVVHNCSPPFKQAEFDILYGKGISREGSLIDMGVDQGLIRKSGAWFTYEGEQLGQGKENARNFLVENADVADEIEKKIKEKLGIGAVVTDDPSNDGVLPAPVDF
Arbovirus anti – arbovirus infection inhibition; inhibition, % at 10 µM; 200,000 compounds, 0.37% hits; arbovirus infection cell-based antiviral screen; AID 1251;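 active = inhibition from about 30%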;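 note: bluetongue infection of BSR cells; cell survival read as ATP light after 72 h; 0% = infected wells without compound and 100% = uninfected wells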
Mtb betalactam – beta-lactam sensitization of Mtb H37Rv; M. tuberculosis H37Rv growth with meropenem, percent inhibition; hits of this screen are not shown here; inhibition, % at 25 µM; 330,000 compounds, 0.27% hits; AID 434955;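 active = about 74% or more and at least 40 points above the plate without the antibiotic, then above 30% in a dose series; inconclusive = first-round hits that could not be retested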;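 note: growth measured after seven days incubation then overnight dye step; 0% = bacteria only wells and 100% = bacteria with antibiotic; twin plates without the antibiotic show which effects depend on it; some results filed as inactive read as strong as hits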
YopH inh – blocks Yersinia enterocolitica YopH tyrosine phosphatase. inhibition, %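 (about 10 µM by stock and volumes)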. fluorescence Ex485/Em525. 140,000 compounds, 0.16% hits. AID 898;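 active = inhibition of 50% or more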;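 note: controls were vehicle for no effect and minimum signal wells for full effect; inactives centre near -20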
Arbovirus anti repeat – also measured in Arbovirus anti; calls as there; inhibition, %; measured here: 10K subset replicate screen; many hits read low in the repeat;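 first of two repeat runs on a subset; 0% = infected and 100% = uninfected wells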
* = called active by the depositor; u = inconclusive; x = no result given.

Preview (16 entries):
SMILES	Mtb H37Rv	RecA splice inh	Arbovirus anti	Mtb betalactam	YopH inh	others
COc1ccc(OC(=O)c2cnn(-c3ccccc3)c2C)cc1	71µM*	3.0	10	98	-4
COc1ccc(CCNC(=O)c2ccccc2)cc1	x	1.0	x	-6	x
C=CCn1cc(CN2CCC(C(=O)Nc3cccc(-c4cccc(Cl)c4)c3)CC2)c(C)n1	x	1.8	x	65	x
CCOC(=O)N1CCN(C(=O)CCn2nc(-c3ccccc3)ccc2=O)CC1	x	-1.3	12	-4	-33
CCOc1ccc(C2C(C(=O)O)CCC(=O)N2C2CCCCC2)cc1 (stereo not drawn)	13%	1.0	18	-3	x
COc1cc(C(=O)NCC(=O)N/N=C/c2ccc(-c3ccc([N+](=O)[O-])cc3)o2)cc(OC)c1OC	x	-53	x	98	x
CCOC(=O)CCn1c2nc(C)cc(C)c2c(=O)n1-c1ccccc1	-7%	0.9	1	-13	-49
C=C1CC2C(=O)N(Cc3ccccc3)C(C(=O)OCC)(C(=O)OCC)C1N2C(=O)OC(C)(C)C (stereo not drawn)	-5%	5.8	x	-1	x
CCOC(=O)C(C)Oc1ccc(C2NC(=O)NC(C)=C2C(C)=O)cc1Br (stereo not drawn)	-9%	3.6	1	10	-13
CCCc1nnc(-c2ccc(OC)cc2)o1	1%	1.8	5	3	1
COC(=O)c1cnc(SCc2ccc([N+](=O)[O-])cc2)n1C	6%	0.7	x	-4	x
Cc1nc(N2C(=O)C(=O)/C(=C(/O)c3ccccc3)C2c2ccco2)sc1C (stereo not drawn)	-4%	-3.6	13	46	-42
CS(=O)(=O)c1ccc(-c2cc(Br)sc2-c2ccc(F)cc2)cc1	16%	7.9	x	5	x
Cc1cc(C)cc(C(=O)Nc2ccc(N3CCCC3)cc2)c1	9%	-3.2	-4	0	x
COC(=O)C1=CN(Cc2cccs2)C=C(C(=O)OC)C1c1ccc(OC)cc1OC	1%	-182	-5	2	x
O=C(c1ccc(C#CC2(O)CCCCC2)cc1)N1CCN(C(c2ccccc2)c2ccccc2)CC1	33%	4.8	-28	37	-5

The listing (from the top)
SMILES	Mtb H37Rv	RecA splice inh	Arbovirus anti	Mtb betalactam	YopH inh	others
COc1ccc(OC(=O)c2cnn(-c3ccccc3)c2C)cc1	71µM*	3.0	10	98	-4
COc1ccc(CCNC(=O)c2ccccc2)cc1	x	1.0	x	-6	x
C=CCn1cc(CN2CCC(C(=O)Nc3cccc(-c4cccc(Cl)c4)c3)CC2)c(C)n1	x	1.8	x	65	x
CCOC(=O)N1CCN(C(=O)CCn2nc(-c3ccccc3)ccc2=O)CC1	x	-1.3	12	-4	-33
CCOc1ccc(C2C(C(=O)O)CCC(=O)N2C2CCCCC2)cc1 (stereo not drawn)	13%	1.0	18	-3	x
COc1cc(C(=O)NCC(=O)N/N=C/c2ccc(-c3ccc([N+](=O)[O-])cc3)o2)cc(OC)c1OC	x	-53	x	98	x
CCOC(=O)CCn1c2nc(C)cc(C)c2c(=O)n1-c1ccccc1	-7%	0.9	1	-13	-49
C=C1CC2C(=O)N(Cc3ccccc3)C(C(=O)OCC)(C(=O)OCC)C1N2C(=O)OC(C)(C)C (stereo not drawn)	-5%	5.8	x	-1	x
CCOC(=O)C(C)Oc1ccc(C2NC(=O)NC(C)=C2C(C)=O)cc1Br (stereo not drawn)	-9%	3.6	1	10	-13
CCCc1nnc(-c2ccc(OC)cc2)o1	1%	1.8	5	3	1
COC(=O)c1cnc(SCc2ccc([N+](=O)[O-])cc2)n1C	6%	0.7	x	-4	x
Cc1nc(N2C(=O)C(=O)/C(=C(/O)c3ccccc3)C2c2ccco2)sc1C (stereo not drawn)	-4%	-3.6	13	46	-42
CS(=O)(=O)c1ccc(-c2cc(Br)sc2-c2ccc(F)cc2)cc1	16%	7.9	x	5	x
Cc1cc(C)cc(C(=O)Nc2ccc(N3CCCC3)cc2)c1	9%	-3.2	-4	0	x
COC(=O)C1=CN(Cc2cccs2)C=C(C(=O)OC)C1c1ccc(OC)cc1OC	1%	-182	-5	2	x
O=C(c1ccc(C#CC2(O)CCCCC2)cc1)N1CCN(C(c2ccccc2)c2ccccc2)CC1	33%	4.8	-28	37	-5
O=C(Nc1ccc2c(c1)OCCO2)C1CCN(c2ncccn2)CC1	-5%	2.3	16	-4	x
Fc1ccccc1-c1nc(N2CCCCC2)c2ccccc2n1	7%	2.8	-4	51	-4
Cc1ccc(NC(=O)c2cccc(S(=O)(=O)N3CCN(c4ccc(F)cc4)CC3)c2)nc1	x	-2.1	x	-1	x
CCC(C)NC(=O)c1cc(-c2ccc3c(c2)OCO3)on1 (stereo not drawn)	x	-3.4	x	4	x
Nc1ccc(Br)c2cccnc12	u	4.1	-25	94	x
Cc1ccc(NC(=S)NC(=O)c2ccc(F)cc2)cc1S(=O)(=O)Nc1cccc(Cl)c1	66%	-15	-10	-5	x
O=C(c1ccc(S(=O)(=O)N2CCOCC2)cc1)N(c1ccc(F)cc1)C1C=CS(=O)(=O)C1 (stereo not drawn)	-6%	0.8	6	12	4
CC(=O)c1coc2ccc(OCC(=O)O)cc12	-4%	-3.6	-2	-4	1
Cc1c(NC(=O)c2cc(-c3ccc(Cl)s3)nc3ccccc23)c(=O)n(-c2ccccc2)n1C	5%	10	-8	5	-33
O=C(c1cnccn1)N1CCN(C/C=C/c2ccccc2)CC1	-9%	-2.4	5	-10	-52
CC(=O)c1ccc(NS(=O)(=O)c2cccc(C(=O)Nc3ccccc3C(=O)O)c2)cc1	x	-1.2	x	-2	x
CCCCn1c(O)c(C(C)=Nc2ccc3c(c2)CCC3)c(=O)[nH]c1=O	8%	-1.3	x	8	x
COc1cc2c(cc1NC(=O)c1cccc(S(=O)(=O)N(C)C)c1)oc1ccccc12	9%	-4.7	-25	1	-47
CCC1(C)Cc2ccccc2-c2[nH][nH]c(=O)c21 (stereo not drawn)	9%	-3.0	28	56	x
O=C(Cc1cccs1)NC(Cc1c[nH]c2ccccc12)C(=O)O (stereo not drawn)	x	-0.3	x	3	x
CN1CCc2c(n(CC(O)CN3CCN(CCO)CC3)c3ccccc23)C1=O (stereo not drawn)	-7%	-3.1	0	-2	x
O=C1CC(N2CCCc3ccccc32)C(=O)N1c1ccccc1 (stereo not drawn)	-6%	-0.7	3	-7	-47
NC(=O)c1ccsc1NC(=O)C1CC1	4%	-1.6	-3	-3	x
CC(=O)N1[C@H](Cc2ccccc2)C=C[C@]1(C)C(=O)NCc1ccc(C)o1	-6%	0.9	-1	-9	-31
O=c1cc(CSc2ccc(Cl)cc2)nc(-c2ccccc2)[nH]1	-4%	-0.9	12	3	x
CC(=O)c1ccc(NS(=O)(=O)c2ccc(N)cc2)cc1	11%	-1.3	8	-2	x
COc1ccc(/C(C)=N/NC(=O)c2nnn(-c3nonc3N)c2-c2cccs2)cc1	x	0.0	x	7	x
O=C(O)COc1ccc(Br)cc1/C=N\Nc1ccccn1	x	-4.1	x	-8	x
CC1CN(Cc2c(O)ccc3c(=O)c(-c4ccccc4)coc23)CC(C)O1 (stereo not drawn)	-2%	-2.6	12	-7	x
O=C(Nc1nnc(C2CC2)s1)c1cc(S(=O)(=O)N2CCCCC2)ccc1N1CCOCC1	-6%	6.8	x	0	x
CCn1c(SCc2nnc(-c3ccccc3)o2)nnc1-c1ccc(S(=O)(=O)N2CCCC2)cc1	-2%	-2.4	9	4	2
FC(F)(F)c1ccc(Oc2ccc(Cl)cc2Br)nc1	1%	-1.0	3	3	x
CC(=O)NCCn1ccc2ccccc21	6%	1.8	8	4	-12
COc1ccc(-c2nc(-c3ccccc3)c(-c3cc([N+](=O)[O-])ccc3C)[nH]2)cc1O	14%	18	-31	55	-2
O=C(Nc1ccccc1C(=O)NCc1cccnc1)c1ccc(Cl)cc1Cl	8%	-1.5	6	-7	-22
COc1ccc(NC(=O)C(C)N(C)Cc2ccc3ccccc3c2)cc1 (stereo not drawn)	x	7.3	x	2	x
CCN(CC(=O)NCc1ccc(F)cc1)C(=O)Cc1c(F)cccc1Cl	x	2.3	x	-3	x
CC(C)c1c(C(=O)N/N=C/c2ccccc2C(=O)O)nnn1-c1nonc1N	x	14	x	-4	x
CCOc1ccc2nc(NC(=O)COC)sc2c1	0%	0.3	4	67	-42	Arbovirus anti repeat=-4

(list continues)
SMILES	Mtb H37Rv	RecA splice inh	Arbovirus anti	Mtb betalactam	YopH inh	others
CC1=C(C(=O)N2CCCCC2)C2(CCC(C)CC2)OC1=O (stereo not drawn)	3%	-3.2	4	-6	-11
C=CCNC(=S)Nc1ccc(C)c(S(=O)(=O)N2CCCCC2)c1	13%	6.0	4	-7	x
CN(C)CCCNC(=O)CCc1ncc(C(F)(F)F)cc1Cl	-14%	-1.6	21	1	x
COCC(C)NC(=O)Cc1ccc(F)cc1 (stereo not drawn)	-6%	-2.7	7	-7	-26
O=C(Nc1nnc(-c2ccc(F)cc2)o1)c1ccc(S(=O)(=O)N2CCOCC2)cc1	x	0.4	x	82	x
Cc1ccc(S(=O)(=O)n2c([N+](=O)[O-])cnc2C)cc1C	-4%	0.3	-6	-3	x
Cc1nc(-c2cccc(N)c2)cs1	37%	1.0	-3	-1	-18
COc1ccc(CCNC(=O)CN2CCC(C)CC2)cc1OC	-19%	-6.1	10	1	4
COc1cccc(C(=O)N2CCN(Cc3ccccn3)CC2)c1	x	-0.4	x	-4	x
O=C(c1cc2ccccc2cc1O)N1CCN(c2ccccc2O)CC1	x	-3.0	x	-1	x
COc1ccc(C2C(C(=O)NCCN3CCOCC3)c3ccccc3C(=O)N2C)cc1OC (stereo not drawn)	-7%	1.0	-2	-1	-27	Arbovirus anti repeat=-2
CCNc1nc(NC#N)nc(SCC(=O)OCC)n1	6%	-0.6	3	-13	-47
COCCCn1c(=O)c2ccccc2n(Cc2ccccc2)c1=O	x	3.5	x	-5	x
Cc1cc2c(cc1C)C(c1ccccc1OC(C)C)CC(=O)N2 (stereo not drawn)	x	8.1	x	-21	x
COc1cc(Br)c(C(C)NC(=O)c2cccc(Br)c2)cc1OC (stereo not drawn)	2%	2.7	2	x	-50
O=C(NCc1cccs1)C1CCCN(C(=O)Nc2ccccc2)C1 (stereo not drawn)	x	-0.7	x	-7	x
O=C(CCC(=O)N1CCOc2ccccc21)NCc1cccnc1	x	-2.1	x	5	x
COc1ccc(N2Cc3ccccc3C2=NC(=O)c2cccc([N+](=O)[O-])c2)cc1	52%	4.1	-5	85	-18
Cc1ccc(C2NC(c3ccc(C)cc3)C(C)C(=NO)C2C)cc1 (stereo not drawn)	6%	5.7	-37	24	-7
C=CCNc1sc(C(=O)c2ccc(Br)s2)c(N)c1C#N	-4%	-2.8	2	10	-38
COc1ccc(NC(=O)C2CCCN(S(=O)(=O)c3ccc4c(c3)CC(C)N4C(C)=O)C2)cc1 (stereo not drawn)	x	-0.9	x	-2	x
Cc1ccccc1C(=O)Nc1nnc(S(=O)(=O)N2CCCCCC2)s1	x	-1.3	x	-2	x
CCC(=NCCC(c1ccccc1)c1ccccc1)c1c(O)[nH]c(=O)[nH]c1=O	1%	-2.2	-12	-1	-50
O=C(COC(=O)/C=C/c1ccc2c(c1)OCO2)NC1CC1	1%	-1.3	-3	10	-31
COc1ccc(N(CC(=O)Nc2ccccc2C(=O)O)S(=O)(=O)c2ccc(C)c([N+](=O)[O-])c2)cc1	2%	4.6	8	2	x
CC(Sc1ccccn1)C(=O)Nc1ccccc1 (stereo not drawn)	0%	-0.9	-8	11	-19
O=C(/C=C/c1ccccc1Cl)NCCc1ccc(F)cc1	-6%	0.6	-8	-3	-8
Cc1cc2oc(C(=O)N3CCN(CCc4ccccn4)CC3)c(C)c2cc1C	x	6.5	x	u	x
CCC1=NN(S(=O)(=O)c2ccc(C)cc2)C(O)(C(F)(F)F)C1 (stereo not drawn)	-1%	-3.6	8	-3	x
CCCOc1ccc(C(=O)Nc2ccc(N(C)C)cc2)cc1	1%	-2.6	-5	-2	-8
CC(=O)OC1OCCOC1NC(=S)Nc1cccc(C(F)(F)F)c1 (stereo not drawn)	3%	-1.1	10	5	x
CC(=O)NC12CC3CC(C1)CC(C(=O)N(C)CC(=O)Nc1ccccc1Cl)(C3)C2	x	-0.3	x	-8	x
N#Cc1ccsc1NC(=O)CSc1ncnc2ccccc12	-1%	9.8	-4	-6	2
COc1ccc(CNC(=O)c2nn(C)c3c2CS(=O)(=O)c2ccccc2-3)cc1	x	-1.3	x	2	x
Cc1nn(-c2ccccc2)c(Cl)c1/C=N/Nc1ccc(S(=O)(=O)Nc2ccccc2C(=O)O)cc1[N+](=O)[O-]	x	25	-4	15	-4
COc1ccccc1Nc1nc2cc(C)ccc2cc1C#N	-3%	x	-5	-2	x

Assay outcomes: PubChem BioAssay, several laboratories

An excerpt (hit frequency here may not be typical).
